# High-throughput results (PubChem)
# Vaccinia mCherry = vaccinia inhibition (mCherry reporter). Vaccinia virus mCherry reporter infection, fluorescence; about a quarter of the inactives have no number. Potency, µM (highest dose often 36.5 µM), for inactives: at the highest dose activity change, negative = inhibition, usual class: inhibitors. actives 0.63% (n = 310,000). AID 720579; active = well fitted inhibition curve with a large enough effect; inconclusive = small, poorly fitted or top-dose-only effect; inactive = no such curve, though single readings can be large or run the other way; tested in A549 cells; also: nearly all actives have a fitted effect of over 35% in size; inactives centre near -10
# Vaccinia Venus = vaccinia inhibition (Venus reporter) | Potency, µM (titrated, usually from 36.5 µM), inactives show top-dose activity change, negative = inhibition, usual class: inhibitors | actives 0.46% (n = 330,000) | AID 720580 | Vaccinia virus Venus reporter expression, fluorescence; active means well fitted inhibition curve with a large enough effect; inconclusive means small, poorly fitted or top-dose-only effect; inactive means no such curve, though single readings can be large or run the other way; tested in A549 cells; also: nearly all actives have a fitted effect of over 30% in size; inactives centre near -10
# * marks the source's active call; other numbers are inactive results; i = inactive; ? = inconclusive; . = no result given; & = joins results of further samples; [ ] = dose if it differs, or a comment. % is scaled to controls: 0 for no effect and ±100 for the full control effect; potency is read from the fitted curve at half-maximal effect.
# Below each compound: Vaccinia Venus, Vaccinia mCherry
CC1=C(C(=O)NCCCOC(C)C)C2(CCC(C)CC2)OC1=O (stereo not given)
 : 0%, -21%
CCn1c(=S)sc2c(=O)n(CC(=O)Nc3cc(OC)ccc3OC)c(C)nc21
 : -2%, -8%
O=C(O)/C(=C\c1ccco1)NC(=O)c1cccc2ccccc12
 : -3%, -16%
COc1cc(CSc2nnnn2-c2ccc(C)cc2)cc(OC)c1OC
 : -30%, -18%
COc1ccc(S(=O)(=O)Nc2ccccc2OC)cc1NC(=O)c1cc2ccccc2oc1=O
 : -6%, -12%
COc1cccc(CNC(=O)CC2Sc3ccccc3NC2=O)c1 (stereo not given)
 : -5%, -3%
Cc1ccc(C(=O)Oc2ccccc2N2C(=O)C3CCCCC3C2=O)cc1 (stereo not given)
 : ?, ?
Nc1c(C(=O)c2ccc(Cl)cc2)sc2nsc(SCCN3CCOCC3)c12
 : -6%[7.34 µM], 0%[7.34 µM]
Cc1cccc(NC(=O)c2ccc(-n3c(C)nnc3C)cc2)c1
 : 12%, -6%
CCCCn1c(=O)[nH]c(=O)c2c1nc(-c1ccc(-c3ccc(F)cc3)o1)n2C
 : 2%, -13%
CC(OC(=O)c1ccco1)C(=O)Nc1nc(-c2ccccc2)cs1 (stereo not given)
 : 1%, i
CC1(C)Cc2c(sc3ncn4c(=S)[nH]nc4c23)CO1
 : 12%, i
CCOC(=O)C1=C(c2ccccc2)Nc2ncnn2C1c1ccc(O)cc1 (stereo not given)
 : -20%, -22%
CCSc1nc2ccccc2n1C(=O)/C=C\c1ccc(OC)c(OC)c1
 : ?, 13µM*
Cn1cccc1Cc1nnc(SCC(=O)N2CCc3ccccc32)n1-c1ccc(F)cc1
 : -1%, -7%

# The list continues:
# Below each compound: Vaccinia Venus, Vaccinia mCherry
CN(C)S(=O)(=O)c1ccc(NC(=O)CN2C(=O)NC3(CCCC3)C2=O)cc1
 : 9%, -7%
Cc1cc(C(=O)N2CCC3(CC2)OCCO3)no1
 : -17%, -14%
Cc1cnc(NC(=O)CN2CCCCC2)s1
 : -11%, 0%
Cc1cc(C)cc(C(=O)N2CCN(Cc3ccc4c(c3)OCO4)CC2)c1
 : -10%, -19%
Cc1cccc(N2CCN(c3ccc4cc(S(=O)(=O)N5CCC(C)CC5)ccc4n3)CC2C)c1 (stereo not given)
 : -20%, -29%
CCOC(=O)C1=C(COC(=O)COc2ccc(Br)cc2)NC(=O)NC1C (stereo not given)
 : -12%, -15%
CC(C)c1nc2oc3c(NCC4CCCO4)ncnc3c2c2c1COC(C)(C)C2 (stereo not given)
 : -4%, -12%
CC(=O)c1ccc(NC(=O)C2CCCN2S(=O)(=O)c2cccs2)cc1 (stereo not given)
 : -12%, i
Cc1ccc(NC(=O)c2c(C)nn(-c3ccccc3)c2Cl)c(C)c1
 : 0%, .
Cc1cccc(C)c1NC(=O)C(c1ccccc1OC(F)(F)F)N1CCN(c2ccc(F)cc2)CC1 (stereo not given)
 : -2%, 20%
O=C(CCc1nnc(-c2ccc3c(c2)OCO3)o1)N(Cc1ccncc1)CC1CCCO1 (stereo not given)
 : -9%, 13%
CCOC(=O)C1=C(CN2CCC(C(=O)OCC)CC2)NC(=O)NC1c1ccc(Cl)cc1 (stereo not given)
 : -8%, -7%
CC1(C(=O)N2CCC(CC3CC(c4ccc(Cl)cc4)=NO3)(C(=O)NCC3CCCCC3)CC2)CC1 (stereo not given)
 : ?, i
C[n+]1c2cc(N)ccc2cc2ccc(N)cc21
 : ?, 5.6µM*
COc1ccc(-c2ccc(CN3C(C(C)C)C(=O)N(Cc4cn(CCC5OCCO5)nn4)CCS3(=O)=O)cc2)cc1OC (stereo not given)
 : -25%, i

# Next compounds follow.
# Below each compound: Vaccinia Venus, Vaccinia mCherry
c1ccc(-c2nc3ccccc3s2)nc1
 : 25%, -4%
O=C(Nc1ccc(F)cc1)C(CCc1ccccc1)N1CCN(C(=O)c2ccco2)CC1 (stereo not given)
 : -5%, -2%
O=C(CCN1C(=O)c2ccccc2C1=O)C1=NN[C@@H]2C(=O)N(c3cccc(Cl)c3)C(=O)[C@H]12
 : -11%, -16%
Cc1cc(-c2ccc(C(C)C)c(S(=O)(=O)N3CCOc4ccccc43)c2)on1
 : -4%, -15%
O=c1c2cc(Br)ccc2nc(-c2ccc(Cl)cc2)n1O
 : 0%, -16%
Cn1c(NC(=O)C2CCCC2)cc(=O)n(C)c1=O
 : 1%, -4%
NC(N)=NN=C1c2ccccc2-c2ccccc21
 : -12%, -5%
CCc1cccc(NC(=O)C2CCC(CNS(=O)(=O)c3ccc4c(c3)CCCC(=O)N4)CC2)c1 (stereo not given)
 : -2%, -8%
COc1ccccc1CCn1cnc(Cc2cccc(F)c2)c1C(C)C
 : -21%, -18%
COCCCCOc1cc2nc(N3CCCN(C)CC3)nc(NC3CCN(C)CC3)c2cc1OC
 : ?, ?
Cc1ccccc1-n1c(-c2ccco2)nc2ccccc2c1=O
 : ?, -6%
CCOC(=O)C1CCCCN1Cc1ccc(-c2ccccc2)cc1 (stereo not given)
 : -12%, -3%
CC(C)C(=O)Nc1c(C(=O)N2CCN(c3ccccc3F)CC2)oc2ccccc12
 : -6%, -3%
Cc1c(C(=O)N2CCC3(CC2)OCCO3)oc2ccccc12
 : -7%, -7%
O=[N+]([O-])c1cc(Br)cc(/C=N/n2cnnc2)c1O
 : -6%, -3%

# Other entries
# Below each compound: Vaccinia Venus, Vaccinia mCherry
O=C(Cc1ccc([N+](=O)[O-])cc1)NCc1ccc2c(c1)OCO2
 : -7%, -24%
C=C(C)Cn1c(-c2ccc(OC)cc2)nc2ccccc21
 : -29%, .
Cc1cnc(NC(=O)c2cc3c(s2)CCCC3)s1
 : -28%, .
CC(NC(=O)c1cccs1)C(c1cccs1)N1CCN(c2ccccc2)CC1 (stereo not given)
 : -13%, i
CC(C)(C)c1ccc(CN2N=C(/C=C/c3ccccc3)CCC2=O)cc1
 : -4%, -3%
O=C(CCCN1C(=O)c2ccccc2C1=O)N1CCCCC1
 : -8%, .
Cc1ccc(NC(=S)NCCC2=CCCCC2)cc1
 : -7%, -10%
CCOC(=O)CSc1nc2ccc(NC(=O)c3ccc(F)cc3)cc2s1
 : -9%, i
NC(=O)CC(NC(=O)c1cccc(Br)c1)c1ccc(NCC2CC2)c([N+](=O)[O-])c1 (stereo not given)
 : -10%, i
O=[N+]([O-])c1ccc(N(CCO)CCO)c2c1no[n+]2[O-]
 : 84%[activator], ?
CC(C)(O)C#Cc1ccc(C(=O)NC(CCCNC(N)=O)C(=O)O)s1 (stereo not given)
 : 7%, 7%
Cc1cc(C)c2c(c1)cc(C)c1nnc(SCC(=O)Nc3ccccc3N3CCOCC3)n12
 : -17%, ?
COc1ccc(C(=O)COc2ccc3ccc(=O)oc3c2)cc1
 : -13%[7.34 µM], i[7.34 µM]
CCC(=O)n1nc(-c2cccnc2)nc1NCc1ccc(F)cc1
 : 0%&-6%, 0%&-10%
CC1(C)COCN1C(=O)c1ccc(Cl)c(Cl)c1
 : -2%, i

# Next section.
# Below each compound: Vaccinia Venus, Vaccinia mCherry
C[C@@H](O)C1NC(=O)[C@H](CCCCN)NC(=O)c2cc([N+](=O)[O-])cc(F)c2NCCCC[C@@H](C(N)=O)NC1=O (stereo not given in full)
 : -2%, i
O=C(CNC(=O)c1ccc(Cl)cc1Cl)OCc1nc2ccccc2s1
 : 0%, -11%
COCC(C)N=C1SCCN1Cc1ccccc1 (stereo not given)
 : -1%, -25%
CNc1nc(N)c([N+](=O)[O-])c(NCc2ccccc2)n1
 : 10%, -11%
O=C(O)C1CCCCC1C(=O)Nc1nccs1 (stereo not given)
 : -21%, -4%
CCC1=Nc2cc(C(=O)NCc3ccccc3Cl)ccc2Sc2ccc(C)cc21
 : -24%, ?
CC(C)Cc1nnc(NC(=O)CCC(=O)N2CCC(C)CC2)s1
 : -6%, i
O=C(Nc1ccc(Cl)cc1)C1CCC(CNS(=O)(=O)c2ccc(Br)s2)CC1 (stereo not given)
 : -27%, -28%
C[C@@H]1CN([C@H](C)CO)C(=O)c2cc(Br)cnc2O[C@@H]1CN(C)C(=O)c1cccc(F)c1
 : -15%, i
Cc1ccc2c(C)c(C(=O)N(Cc3cccs3)C3CCS(=O)(=O)C3)oc2c1 (stereo not given)
 : -21%, -33%
Cc1cccc(C)c1NC(=O)C1(C)CSCC(=O)N1CCCN1CCOCC1 (stereo not given)
 : -11%, -17%
CSc1nsc(SCc2cnc(C)nc2N)n1
 : ?, 22µM*
O=C1N(c2ccccc2C(F)(F)F)O[C@@]1(c1ccccc1)C1CCCC1
 : ?, ?
O=c1ccc(=O)n2n1CC(O)C2
 : -4%, .
O=C1c2c(-c3ccc(Br)cc3)noc2CCN1Cc1cn(C2CCCC2)nn1
 : ?, ?

# 18 structures from above, arranged by SMILES length, lowest first.
# Below each compound: Vaccinia Venus, Vaccinia mCherry
O=c1ccc(=O)n2n1CC(O)C2
 : -4%, .
CSc1nsc(SCc2cnc(C)nc2N)n1
 : ?, 22µM*
O=C(O)C1CCCCC1C(=O)Nc1nccs1 (stereo not given)
 : -21%, -4%
CC1(C)COCN1C(=O)c1ccc(Cl)c(Cl)c1
 : -2%, i
COc1ccc(C(=O)COc2ccc3ccc(=O)oc3c2)cc1
 : -13%[7.34 µM], i[7.34 µM]
CCC(=O)n1nc(-c2cccnc2)nc1NCc1ccc(F)cc1
 : 0%&-6%, 0%&-10%
CNc1nc(N)c([N+](=O)[O-])c(NCc2ccccc2)n1
 : 10%, -11%
O=C(CNC(=O)c1ccc(Cl)cc1Cl)OCc1nc2ccccc2s1
 : 0%, -11%
O=[N+]([O-])c1ccc(N(CCO)CCO)c2c1no[n+]2[O-]
 : 84%[activator], ?
Cc1cccc(C)c1NC(=O)C1(C)CSCC(=O)N1CCCN1CCOCC1 (stereo not given)
 : -11%, -17%
CC(C)(O)C#Cc1ccc(C(=O)NC(CCCNC(N)=O)C(=O)O)s1 (stereo not given)
 : 7%, 7%
CCC1=Nc2cc(C(=O)NCc3ccccc3Cl)ccc2Sc2ccc(C)cc21
 : -24%, ?
O=C1c2c(-c3ccc(Br)cc3)noc2CCN1Cc1cn(C2CCCC2)nn1
 : ?, ?
Cc1ccc2c(C)c(C(=O)N(Cc3cccs3)C3CCS(=O)(=O)C3)oc2c1 (stereo not given)
 : -21%, -33%
Cc1cc(C)c2c(c1)cc(C)c1nnc(SCC(=O)Nc3ccccc3N3CCOCC3)n12
 : -17%, ?
NC(=O)CC(NC(=O)c1cccc(Br)c1)c1ccc(NCC2CC2)c([N+](=O)[O-])c1 (stereo not given)
 : -10%, i
C[C@@H]1CN([C@H](C)CO)C(=O)c2cc(Br)cnc2O[C@@H]1CN(C)C(=O)c1cccc(F)c1
 : -15%, i
C[C@@H](O)C1NC(=O)[C@H](CCCCN)NC(=O)c2cc([N+](=O)[O-])cc(F)c2NCCCC[C@@H](C(N)=O)NC1=O (stereo not given in full)
 : -2%, i

# (list continues)
# Below each compound: Vaccinia Venus, Vaccinia mCherry
Cn1c(SCc2ccccc2)nc2ccsc2c1=O
 : -10%, i
COc1ccc(NC(=O)Nc2ccc3nonc3c2)cc1
 : -8%, i
COCCn1c(C)cc(C(=O)COC(=O)c2ccc3c(c2)NC(=O)CS3)c1C
 : -9%, -11%
CCC(C)Sc1ccc(-c2nc3ccc(C)cn3c2NC2CCCCC2)cc1 (stereo not given)
 : ?, 8.9µM*
COC(=O)Cc1ccc2oc(-c3cccnc3)nc2c1
 : 3%, -14%
Cn1c(SCC(=O)N2CCN(c3ccccc3)CC2)nnc1-c1c[nH]c2ccccc12
 : ?, -24%
Cc1cccc(C(=O)OCC(=O)Nc2ccc(N3CCCCC3)cc2)c1O
 : -14%, -16%
CCOc1cc(NC(=S)NCCCN(C)C)c(OCC)cc1NC(=O)C1CC1
 : 2%, ?
Nc1cnn(C2CCCO2)c(=O)n1 (stereo not given)
 : -12%, i
Cc1ccc(N(Cc2ccccc2)C(=O)c2cc(S(=O)(=O)N3CCOCC3)ccc2C)cc1
 : ?, ?
COc1ccc2c(c1)C(=O)C1(CC2)OC1c1cccnc1 (stereo not given)
 : -16%, -6%
CCOC(=O)c1ccc(N2C(=O)CC(NC3CCN(C(=O)c4cccc(Cl)c4)CC3)C2=O)cc1 (stereo not given)
 : 4%, -5%
Cc1csc2nc(O)c(C(=O)NC3CCCCCC3)c(=O)n12
 : 7%, 10%
COc1cc(OC)c(C(=O)NCC2CCCO2)cc1OC (stereo not given)
 : -3%, -13%
CCN(CC)S(=O)(=O)c1cc(C(=O)Oc2cccc(-c3cnc4ccccc4n3)c2)ccc1Br
 : -8%, .
